From PubChem BioAssay
Prx2 Sm inh: blocks S. mansoni peroxiredoxin 2 enzymatic activity | Potency, µM | S. mansoni Prx2 activity coupled to TGR/GSH (TGR is thioredoxin glutathione reductase), NADPH fluorescence loss, qHTS; some inactives read as strong as hits | AID 448 | 0.07% of 65,000 active; active means full or partial inhibition curve with a strong effect at the top dose; inconclusive means weaker partial or single-point curve; inactive means no accepted curve; further: series up to 57 µM; many of its hits are not listed in these tables
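Prx2 inhibition was measured as reduced NADPH consumption when electrons flowed from NADPH through TGR and glutathione to Prx2 and H2O2. Plates were read kinetically over 8 min; enzyme reagents were held at 4 deg C during dispensing.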
Anthrax LT inh: inhibitors of anthrax lethal toxin internalization; 0.67% of 70,000 active; Cells, anthrax lethal toxin internalization, FRET ratio (460/530); AID 912; Potency, µM (top dose mostly 40 µM), for inactives: at the top dose activity change, negative = inhibition, actives largely listed as inhibitors; active = well fitted falling ratio curve with the 530 nm signal flat; inconclusive = other ratio curves, or a change in one channel alone; inactive = flat curves in the ratio and both channels; the % refers to the ratio; further: on the % scale 0 is the no-effect control and ±100 the full control effect; nearly all actives have a fitted effect of over 50% in size; tested in ME-180 cells; beta-lactamase reporter
* hit, by the source's call; u = inconclusive; x = not tested or not shown; & = joins results of further samples; [ ] = remark or other dose. Potency means the concentration at half of the fitted maximal effect. An excerpt; rates above refer to the full screens.

#1 COC(=O)[C@@]1(C)C=C[C@@H](Cc2ccccc2)N1C(=O)c1ccccc1
#2 Cc1ccc(Cn2ccc(NC(=O)c3c(-c4ccccc4Cl)noc3C)n2)cc1
#3 Cc1ccccc1CSCC(=O)NC(=O)NC(C)(C)C
#4 Cc1cc(NC(=O)CSc2nc3ccccc3[nH]2)no1
#5 COC(=O)[C@@]1(Cc2ccccc2)[C@@H]2[C@@H](CC(=O)[C@H]2CC(=O)C(=O)N(C)C)CN1C(=O)c1ccccc1
Screen / compound no. | 1 | 2 | 3 | 4 | 5
Prx2 Sm inh | x | >57 | >57 | >57 | >57
Anthrax LT inh | -17.2% | -8.5% | -2.8% | 2.4% | 16.3%

#6 Cn1nnc(NC(=O)c2ccco2)n1
#7 O=C(CSc1nc2c(c(=O)n1-c1ccc(Cl)cc1)SCC2)Nc1ccc2c(c1)OCCO2
#8 CCCS(=O)(=O)NCc1cn2c(C)csc2n1
#9 CCc1nnc(NC(=O)CSc2nnc(COc3ccccc3)n2Cc2ccccc2)s1
#10 CC1(C)CC(=O)C(C(c2ccco2)C2C(=O)CC(C)(C)CC2=O)C(=O)C1
Screen / compound no. | 6 | 7 | 8 | 9 | 10
Prx2 Sm inh | >57 | >57 | >57 | >57 | >57
Anthrax LT inh | u | u | 5.7% | -2.6% | 14.3%

Single records (already shown). Screens in order: Prx2 Sm inh, Anthrax LT inh
CCc1nnc(NC(=O)CSc2nnc(COc3ccccc3)n2Cc2ccccc2)s1 is listed with >57, -2.6%
Cn1nnc(NC(=O)c2ccco2)n1 is listed with >57, u

(listing goes on)
#11 O=C(CN(c1ccccc1)S(=O)(=O)c1ccccc1)N1CCN(Cc2ccc3c(c2)OCO3)CC1
#12 O=C(NCC1COc2ccccc2O1)C1CCCN(S(=O)(=O)c2cnc[nH]2)C1 (centres undefined)
#13 COC(=O)c1ccc(NC(=O)CSc2nnc(CNc3ccc(OC)cc3)n2C)cc1
#14 Oc1ccc2nc(Cc3ccccc3)[nH]c2c1
#15 CCOC(=O)C1C(=O)NCC2CCCC21 (centres undefined)
Screen / compound no. | 11 | 12 | 13 | 14 | 15
Prx2 Sm inh | >57 | >57 | >57 | >57 | >57
Anthrax LT inh | -20.0% | -2.6% | u | -8.3% | 6.6%

#16 O=C(O)c1cccc(S(=O)(=O)NCc2cccs2)c1
#17 CCOc1ccc(OCc2ccc(C(=O)Nc3ccc(Cl)cn3)o2)cc1
#18 CCOc1cc(C2C(C(=O)c3ccco3)=C(O)C(=O)N2CCc2ccccc2)ccc1O (centres undefined)
#19 COc1cccc(-c2nnc(Nc3nc4c(F)cccc4s3)o2)c1
#20 O=C(CCN1C(=O)c2ccccc2C1=O)NCCC1=CCCCC1
Screen / compound no. | 16 | 17 | 18 | 19 | 20
Prx2 Sm inh | >57 | >57 | >57 | >57 | >57
Anthrax LT inh | u | u | -1.5% | -3.3% | x

#21 CCOC(=O)c1cnc(SCc2nc(N)nc(Nc3ccc(F)cc3)n2)nc1N
#22 CCOC(=O)N1CCN(Cc2nc3c(c(=O)n(C)c(=O)n3C)n2CCCc2ccccc2)CC1
#23 COCCN(C(=O)Nc1ccc(OC)cc1OC)C1CCN(C(C)C)CC1
#24 Cc1cc(C)c2c(N)c(C(=O)Nc3nccs3)sc2n1
#25 COc1ccccc1-c1nnc2sc(COc3ccc(Cl)cc3Cl)nn12
Screen / compound no. | 21 | 22 | 23 | 24 | 25
Prx2 Sm inh | >57 | >57 | >57 | >57 | >57
Anthrax LT inh | 10.6% | -7.8% | x | 18.1% | 10µM*

Quoted at random: two compounds from above.
#19 COc1cccc(-c2nnc(Nc3nc4c(F)cccc4s3)o2)c1
#11 O=C(CN(c1ccccc1)S(=O)(=O)c1ccccc1)N1CCN(Cc2ccc3c(c2)OCO3)CC1
Screen / compound no. | 19 | 11
Prx2 Sm inh | >57 | >57
Anthrax LT inh | -3.3% | -20.0%

(list continues)
#26 c1ccc2oc(SCc3cn4ccccc4n3)nc2c1
#27 O=C(Cl)OCc1ccccc1
#28 O=C(NCC1CCS(=O)(=O)C1)NCC1CCS(=O)(=O)C1 (centres undefined)
#29 CC1(C)CC(=O)C2=C(C1)Nc1ncnn1C2c1ccccn1 (centres undefined)
#30 O=C(CNS(=O)(=O)c1ccc(Br)s1)N1CCC2(CC1)OCCO2
Screen / compound no. | 26 | 27 | 28 | 29 | 30
Prx2 Sm inh | >57 | x | >57 | >57 | >57
Anthrax LT inh | 3.6% | 5.1% | 8.8% | u | -9.1%

#31 COc1cc(C(=O)Nc2ccc(NC(=O)C3CC3)nc2)cc(OC)c1OC
#32 Cc1cc(NC(=O)c2cc(-c3ccco3)on2)n(-c2ccccc2)n1
#33 CCn1c(SCCOc2ccc(Cl)cc2)nnc1-c1cccs1
#34 Cc1ccc(C(C(=O)NCc2ccco2)N(CCc2ccccc2)C(=O)Cn2nnc3ccccc32)o1 (centres undefined)
#35 CCCCNC(=O)c1ccccc1NC(=O)c1ccccc1N(C)S(C)(=O)=O
Screen / compound no. | 31 | 32 | 33 | 34 | 35
Prx2 Sm inh | >57 | >57 | >57 | >57 | >57
Anthrax LT inh | 13.4% | -12.8% | -6.4% | 10.9% | -5.0%

#36 COc1ccc(-c2cc(C(=O)NCc3cccnc3)no2)cc1OC
#37 CC(C)C(=O)Nc1ccc([N+](=O)[O-])c(C(F)(F)F)c1
#38 CCC(C)NC(=O)COc1ccc(S(=O)(=O)N2CCOCC2)cc1 (centres undefined)
#39 Cc1cccc(N2CCN(C(c3cccs3)c3nnnn3C(C)(C)C)CC2)c1C (centres undefined)
#40 O=C(CCc1ccc(O)cc1)c1c(O)cc(O)cc1O
Screen / compound no. | 36 | 37 | 38 | 39 | 40
Prx2 Sm inh | >57 | >57&>57 | >57 | >57 | >57&>57
Anthrax LT inh | 0.6% | -13.1% | -3.6% | -9.2% | u

Brought forward from above: 2 entries; new compounds follow.
#39 Cc1cccc(N2CCN(C(c3cccs3)c3nnnn3C(C)(C)C)CC2)c1C (centres undefined)
#40 O=C(CCc1ccc(O)cc1)c1c(O)cc(O)cc1O
#41 Cn1nnc(NC(=O)c2ccc(C(C)(C)C)cc2)n1
#42 CCCCOc1ccc(CSc2n[nH]c(C)n2)cc1
#43 CCCN1Cc2cccc(C(N)=O)c2C1=O
#44 O=C(NCc1ccccn1)c1cn(CCc2ccccc2)nn1
#45 N[C@@H]1CONC1=O
Screen / compound no. | 39 | 40 | 41 | 42 | 43 | 44 | 45
Prx2 Sm inh | >57 | >57&>57 | >57 | >57 | >57 | >57 | >57&>57&>57&>57&>25.6
Anthrax LT inh | -9.2% | u | -5.2% | u | -2.0% | 12.4% | 4.3%[3.58 µM]

#46 CCCC(=O)C1=C(O)C(C(=O)OC)C(C)(C)CC1=Nc1ccncc1 (centres undefined)
#47 Cc1nc(N)[nH]c(=O)c1CCC(=O)OCC(C)C
#48 COCCn1c(=NC(=O)CSCC(=O)Nc2cc(C)on2)sc2cc(C(=O)OC)ccc21
#49 CC(=O)c1cccc(NC(=O)c2cc3ccccn3n2)c1
#50 COc1cc2c(cc1OC)CN(C(=O)CCCN1C(=O)c3ccccc3C1=O)CC2
Screen / compound no. | 46 | 47 | 48 | 49 | 50
Prx2 Sm inh | x | >57 | >57 | >57 | >57
Anthrax LT inh | 14.3% | 2.2% | -13.2% | -22.9% | -15.5%

#51 CCC(=O)N1c2ccccc2[C@@H](N(C(C)=O)c2ccccc2)C[C@H]1C
#52 COCCNc1c(-c2ccc(O)cc2)nc2ccc(Cl)cn12
#53 CCOC(=O)N1CCC(N2Cc3cccc(C(=O)Nc4ccc(OC)c(OC)c4)c3C2=O)CC1
#54 C=CCn1c(=O)c(C(=O)NCCNCC)c(O)c2ccccc21
#55 CCC(C)[C@H](NC(=O)N1CCCC1)C(=O)O (some centres undefined)
Screen / compound no. | 51 | 52 | 53 | 54 | 55
Prx2 Sm inh | >57 | >57 | >57 | >57 | >57
Anthrax LT inh | u | -5.8% | 0.3% | -0.6% | -7.4%

#56 COc1ccc2cc(CCC(C)=O)ccc2c1
#57 COC(=O)c1c(NC(=O)CN2CCN(c3ccccc3OC)CC2)c2c(C)cccc2n1C
#58 CC1=C(C(=O)OCc2ccc3c(c2)OCO3)C(c2ccccc2)NC(=O)N1 (centres undefined)
#59 Clc1ccccc1
#60 O=C(CCn1c(=O)c2sccc2n(Cc2cc(=O)n3ccccc3n2)c1=O)NCc1ccco1
Screen / compound no. | 56 | 57 | 58 | 59 | 60
Prx2 Sm inh | >57 | >57 | >57 | x | >57
Anthrax LT inh | -6.9%[3.58 µM] | 6.2% | -20.2% | 6.1% | 8.4%

#61 NC(=O)C1CCN(c2nc(-c3ccccc3)nc3c2oc2ccccc23)CC1
#62 Cn1c(SC/C=C/c2ccccc2)nnc1-c1cnccn1
#63 Cc1nc(-c2cccc(-c3noc(C)n3)c2)no1
#64 CS(=O)(=O)N1CCC2(CCCN(C(=O)Nc3cccc(C#N)c3)C2)CC1
#65 COc1ccccc1N1C(=O)C2CC=CC(C)C2C1=O (centres undefined)
Screen / compound no. | 61 | 62 | 63 | 64 | 65
Prx2 Sm inh | >57 | >57 | >57 | >57 | x
Anthrax LT inh | -2.6% | -11.0% | -27.1% | 4.3% | -16.2%

#66 CSC(=O)CC(=O)NC(=O)c1ccccc1
#67 O=C(Nc1c(C(=O)N2CCOCC2)cnn1-c1ccccc1)c1ccccc1
#68 CCc1nnc(NC(=O)C2CCCN2C(=O)Nc2ccccc2OC)s1 (centres undefined)
#69 COC(=O)[C@H](CCSC)NC(=O)NCc1cccs1
#70 O=C(COC(=O)C1(c2ccc(F)cc2)CCCC1)N1CCOCC1
Screen / compound no. | 66 | 67 | 68 | 69 | 70
Prx2 Sm inh | >57 | x | >57 | >57 | >57
Anthrax LT inh | -6.6% | -23.9% | 6.0% | 6.5% | 1.6%

#71 CCCCn1c(CNC(=O)c2cccs2)nc2ccccc21
#72 Nc1ccc[n+](Cc2ccccn2)c1
#73 CCCCCn1c(CN2CCN(C(=O)OCC)CC2)nc2c1c(=O)n(C)c(=O)n2C
#74 COC(=O)c1cc2ccsc2n1CC(=O)NCC1CCCO1 (centres undefined)
#75 Cn1nc(C(=O)OCCN2C(=O)c3ccccc3C2=O)c2ccccc2c1=O
Screen / compound no. | 71 | 72 | 73 | 74 | 75
Prx2 Sm inh | >57 | >57 | >57 | >57 | >57
Anthrax LT inh | -0.8% | -2.5% | 3.0% | -2.9% | -3.9%

#76 Cc1cc(O)c(/C=N/c2ccccn2)c(=O)o1
#77 CCOc1ccc2[nH]c(=O)c(CN(Cc3cccs3)Cc3nnnn3C(C)(C)C)cc2c1
#78 CC(=O)c1cccc(NC(=O)N2CCCC2C(=O)Nc2cc(C)ccc2C)c1 (centres undefined)
#79 CCN(CC)S(=O)(=O)c1csc(C(=O)NCc2ccccc2)c1
#80 Cc1ccc(C(=O)OCc2nnc(-c3ccccc3)o2)o1
Screen / compound no. | 76 | 77 | 78 | 79 | 80
Prx2 Sm inh | >57 | >57 | >57 | >57 | >57
Anthrax LT inh | -3.0% | -3.6% | -7.1% | -18.3% | 14.1%

#81 O=S(=O)(NCCc1cn2ccccc2n1)c1ccc(F)c(C(F)(F)F)c1
#82 CCN(CC)Cc1c(O)ccc2c(-c3ccccc3)cc(=O)oc12
#83 COc1cc(OC)cc(-c2nnc(SCC(=O)N(C(C)C)C(C)C)o2)c1
#84 O=C(CN1C(=O)CCC1=O)Nc1ccc(Br)cc1
#85 CCc1nc(Nc2ccc(N3CCN(C(C)=O)CC3)cc2)c2oc3ccccc3c2n1
Screen / compound no. | 81 | 82 | 83 | 84 | 85
Prx2 Sm inh | >57 | x | >57 | >57 | >57
Anthrax LT inh | 7.0% | -29.3% | 4.5% | 4.2% | x

#86 c1ccc2c(c1)CCCC2NC1=NCCC1 (centres undefined)
#87 O=C(NC1CCN(Cc2nnnn2CCc2ccccc2)CC1)c1ccccc1F
#88 CC12CN3CC(C)(CN(C1)C3c1ccc(Br)cc1)C2 (centres undefined)
#89 c1ccc(COn2c(-c3ccccc3)nc3c2CCc2nonc2-3)cc1
#90 CN(Cc1nc2ccccc2n1C)C(=O)c1cccs1
Screen / compound no. | 86 | 87 | 88 | 89 | 90
Prx2 Sm inh | >57 | >57 | >57 | >57 | >57
Anthrax LT inh | 0.6% | 14.6% | x | 0.1% | 9.2%

#91 CC(=O)Oc1ccc(N2C(=O)C3C4C=CC(O4)C3C2=O)cc1 (centres undefined)
#92 COCCn1c(N)c(C(=O)NCc2cccs2)c2nc3ccccc3nc21
#93 CCCc1cc(=O)oc2cc3oc(C)c(C)c3cc12
#94 Cc1cc(C)cc(C(=O)/C=C2\NC(=O)CS2)c1
#95 CCc1c2c(nc3ccc(OC)cc13)OC(C)C2 (centres undefined)
Screen / compound no. | 91 | 92 | 93 | 94 | 95
Prx2 Sm inh | x | >57 | >57 | >57 | >57
Anthrax LT inh | -8.3% | u | 2.1% | -13.4% | -3.7%

#96 COc1cc(-c2noc(-c3ccccc3C(=O)NCc3ccco3)n2)cc(OC)c1OC
#97 O=C(O)[C@@H]1C[C@@H](C(=O)O)N1
#98 COc1ccc(-c2onc3ccc(Cl)cc23)cc1OC
#99 COc1ccc(C(=O)Nc2ccccc2C(=O)NCc2ccco2)cc1OC
#100 CC1(C)Cc2c(c(-c3ccco3)nc3n[nH]c(N)c23)CO1
#101 O=C(NCCN1CCOCC1)c1cccc(Cl)c1
#102 O=c1cnc2cnc(OCc3ccccc3)nc2n1Cc1ccc(F)cc1
Screen / compound no. | 96 | 97 | 98 | 99 | 100 | 101 | 102
Prx2 Sm inh | >57 | >57 | >57 | >57 | >57 | >57 | >57
Anthrax LT inh | u | 2.1% | -14.2% | u | 8.0% | -0.5% | -1.6%
